T cruzi repl – inhibitors of intracellular T. cruzi growth, primary screen, luminescence, NIH3T3 host cells | inhibition, % (concentration not given with the values) | actives 1.4% (n = 300,000) | AID 1885, 2009 | T. cruzi beta-gal in NIH3T3, 90 h;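 active means mean inhibition across valid replicates above about 55%, limit read from the data; inconclusive means mean below that limit but half or more replicates reach it; inactive means mean below it, under half of replicates reach it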;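 further: signal also drops with host cell toxicity which is not excluded here; 0% = plate median of DMSO wells and 100% = zero luminescence signal; higher percent means less beta-gal luminescence so fewer parasites; stock transfer was 50 nL into about 50 µL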
Calb FLC – C. albicans growth inhibition with fluconazole, primary screen, CaCi-2 strain, Alamar Blue fluorescence | C. albicans CaCi-2 (fluconazole-resistant clinical isolate) + fluconazole, 48 h | growth inhibition, % (concentration not given with the values) | actives 0.57% (n = 300,000);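 active means most replicates above 75%; inconclusive means exactly half above 75%; inactive means most below 75%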;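 further: all wells also contain fluconazole at 8 µg/ml as a sub-toxic cotreatment; 0% = median of DMSO wells and 100% = median of geldanamycin control wells; wells of about 8 µL received 7.5 nL stock; the first replicate is given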
A1 inh – caspase 3/7 activation in MEF A1-2A-BIM cells, primary screen, A1 inhibitor project, cell-based, luminescence, HTS; Caspase-Glo 3/7 luminescence, 3 h; percent of clofoctol response, vehicle zero; caspase activation, % (test concentration not listed); actives 0.066% (n = 330,000);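 active means over half of replicate activation scores above 10%, or exactly half above 10 with the replicate mean above 10; inconclusive means replicate mean below 10 yet half the replicates above 10; inactive means over half of replicates below 10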;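 further: wells of about 30 µL received 50 nL stock; many hits fall short of the cut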
Beta2AR agonist – beta2AR agonists driving receptor internalization, primary screen, cell-based, FAP fluorogen, flow cytometry. AID 504454, 2011. response, % (test concentration not listed). actives 0.43% (n = 340,000). Am2.2-beta2AR cells; reference of the scale not given here. Beta-2 adrenergic receptor (Homo sapiens), P07550;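 active means response above a set limit, near 3 SD of response in nonfluorescent compounds, cut at about 42% in these data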;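 further: stock transfer was 100 nL into about 11 µL; a reference agonist was the positive control; negative values mostly stem from fluorescent compounds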
Target sequence (P07550 whole entry, looked up): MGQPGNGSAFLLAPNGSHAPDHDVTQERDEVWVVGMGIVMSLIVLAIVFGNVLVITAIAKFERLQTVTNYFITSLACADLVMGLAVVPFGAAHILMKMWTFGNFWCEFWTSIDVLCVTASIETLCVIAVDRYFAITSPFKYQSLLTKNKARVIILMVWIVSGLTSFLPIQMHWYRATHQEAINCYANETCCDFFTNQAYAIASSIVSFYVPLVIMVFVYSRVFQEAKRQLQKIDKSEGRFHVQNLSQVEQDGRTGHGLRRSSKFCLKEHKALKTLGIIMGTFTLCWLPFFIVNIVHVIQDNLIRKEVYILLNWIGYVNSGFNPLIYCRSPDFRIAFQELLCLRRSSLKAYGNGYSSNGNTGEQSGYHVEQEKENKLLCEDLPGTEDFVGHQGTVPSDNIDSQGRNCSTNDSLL
LANA-H2B inh – blockers of LANA interaction with H2A/H2B – biochemical, FP readout, HTS, primary screen; Protein LANA1 (Human herpesvirus 8 type P (isolate GK18)), Q9QR71; cell-free LANA-H2A/H2B peptide, fluorescence polarization; inhibition, % (concentration not given with the values); actives 0.6% (n = 320,000); in the data active means inhibition mostly above about 10%, no sharp cut-off; inactive means mostly below about 6.7%;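 further: stock transfer was 7.5 nL into about 10 µL; 0% = median of vehicle wells and 100% = median of positive control wells; one replicate is shown; the record names a cut of 25% in any replicate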
UCH37 inh – inhibitors of human UCH37 deubiquitinase, primary screen, biochemical, Ub-AMC cleavage, fluorescence. actives 0.33% (n = 330,000). purified proteasome/UCH37. Ubiquitin carboxyl-terminal hydrolase isozyme L5 (Homo sapiens), Q9Y5K5. inhibition, % (no concentration beside the values);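 active means mean of two replicates above 20%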;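 further: 0% = compound-free wells with enzyme and 100% = wells lacking proteasome; stock transfer was 100 nL into about 20 µL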
Target sequence (Q9Y5K5 whole entry, looked up): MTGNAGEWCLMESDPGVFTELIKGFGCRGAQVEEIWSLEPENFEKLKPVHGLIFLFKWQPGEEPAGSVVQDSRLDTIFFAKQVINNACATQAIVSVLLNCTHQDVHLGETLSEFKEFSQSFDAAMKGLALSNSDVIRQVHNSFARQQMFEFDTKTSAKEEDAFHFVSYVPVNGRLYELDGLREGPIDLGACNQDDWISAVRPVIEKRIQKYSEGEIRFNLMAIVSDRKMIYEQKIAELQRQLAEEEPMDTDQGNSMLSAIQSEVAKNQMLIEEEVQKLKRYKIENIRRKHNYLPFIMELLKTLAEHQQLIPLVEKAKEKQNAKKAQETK
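Material: human UCH37 enzyme supplied as purified proteasome complex / Amount: 0.15 nM proteasome as dispensed / Buffer or medium: pH 7.4 Tris-HCl (50 mM) with ovalbumin, ATP-MgCl2, DTT / Times: preincubation 30 min, reaction 25 min, room temperature / Technique: AMC fluorescence from Ub-AMC cleavage, excitation 355 nm, emission 460 nm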
Beta apoptosis – inhibitors of cytokine-induced beta cell apoptosis, primary screen, luminescence. protection from apoptosis, % (test concentration not listed). AID 435005, 2010. actives 0.8% (n = 300,000). INS-1E cytokine-induced death, ATP luminescence, 48 h; percent of positive-control rescue, neutral wells zero;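 active means all replicates at 75% or more, or half of them and the mean; inconclusive means half reach 75% but not the mean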;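 further: 0% = cytokine-treated negative control wells and 100% = positive control rescue; higher means more ATP so stronger rescue from cytokine killing; wells of about 40 µL received 100 nL stock; the first replicate is given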
RanGTP-Impb inh – inhibitors of RanGTP-importin-beta interaction, primary screen, biochemical, FRET, CFP-Ran, YFP-importin-beta, homogeneous. actives 1.1% (n = 300,000). cell-free CFP-Ran/YFP-importin-beta FRET ratio. Ran GTPase (GTP-bound) - importin-beta complex. inhibition, % (concentration not given with the values);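 active means most replicates above 15%; inconclusive means exactly half above 15%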;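 further: 0% = DMSO wells and 100% = Ran loaded with GDP instead of GTP; wells of about 40 µL received 100 nL stock; the first replicate is given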
* hit, by the source's call; i = inactive; u = inconclusive; x = no result given.

cpd	canonical_smiles	T cruzi repl	Calb FLC	A1 inh	Beta2AR agonist
1	CCN(CC)CCNC(=O)c1cc2cc3ccc(OC)cc3nc2o1	33	1	-0.7	-9
2	N/C(=N\c1nc2ccccc2o1)NC(=O)c1ccc(Cl)cc1	8	0	-0.1	-14
3	COCCC1CCCCN1C(=O)c1cccc(OC2CCN(C3CCCC3)CC2)c1 (stereo not given)	15	-8	1.2	-3
4	Cc1ccc(SCCC(=O)N/N=C/c2cccnc2)cc1	0	-6	-1.4	-16
5	COc1ccc(Cl)cc1S(=O)(=O)N1CCC(C(=O)N2CCOCC2)CC1	-13	1	-0.2	12
6	CC(=O)Nc1ccc(C(=O)CSc2nnc(Cc3ccccc3)o2)cc1	11	3	x	-12
7	O=C(CN1CCCCC1)NC(=O)NC1CCCC1	0	-9	0.0	-5
8	CCc1cc(-c2n[nH]c(=S)n2Cc2ccccc2)cs1	x	3	0.2	-3
9	O=C(CSc1nc2ccccc2[nH]1)c1ccco1	-12	-4	-4.0	-3
10	CC1(C)S[C@@H]2C(C(=O)OCc3ccccc3)NC(=O)N2C1C(=O)OCc1ccccc1 (stereo not given in full)	11	1	-0.2	-2
11	CCSC(=O)CCCCCCCCCCCO	x	-5	-1.1	-1
12	COC(=O)c1[nH]c2cccc(OC)c2c1NC(=O)CN1CC2(C)CC1CC(C)(C)C2 (stereo not given)	-32	1	0.0	1
13	CCOc1cc(S(=O)(=O)n2nc(C)cc2C)ccc1Br	18	0	0.6	2
14	CC(C)(C)NC(=O)c1ccc2c(c1)N(CC(=O)N1CCN(c3ccccc3F)CC1)C(=O)C(C)(C)O2	17	33	0.4	4
15	CCc1ccccc1N(CC(=O)NC1CCCCC1)C(=O)CNC(=O)c1ccco1	-5	7	0.1	-11

cpd	LANA-H2B inh	UCH37 inh	Beta apoptosis	RanGTP-Impb inh
1	-1.0	i	-8	5.5
2	1.0	1.2	-6	-2.3
3	-4.3	3.7	-9	-0.1
4	0.0	x	2	x
5	-0.6	0.3	-1	1.5
6	x	-1.1	x	1.3
7	5.7	0.4	0	-2.6
8	4.7	2.6	0	4.2
9	0.8	1.9	-1	0.1
10	5.1	5.1	-10	0.4
11	0.7	1.6	-2	-0.7
12	-4.6	-12	-6	4.2
13	1.5	3.9	-1	1.1
14	-1.9	4.1	-1	-1.0
15	9.4	5.8	-2	1.6

Laid out differently: entries from further up.
entry	SMILES	T cruzi repl	Calb FLC	A1 inh	Beta2AR agonist	LANA-H2B inh	UCH37 inh	Beta apoptosis	RanGTP-Impb inh
9	O=C(CSc1nc2ccccc2[nH]1)c1ccco1	-12	-4	-4.0	-3	0.8	1.9	-1	0.1
10	CC1(C)S[C@@H]2C(C(=O)OCc3ccccc3)NC(=O)N2C1C(=O)OCc1ccccc1 (stereo not given in full)	11	1	-0.2	-2	5.1	5.1	-10	0.4

(next part)
cpd	canonical_smiles	T cruzi repl	Calb FLC	A1 inh	Beta2AR agonist
16	COc1ccc(/C=C\C(=O)c2c(O)ccc3c(C)cc(=O)oc23)cc1	-9	-1	-0.6	2
17	O=C(O)c1ccc(Cl)c(S(=O)(=O)Nc2ccc(S(=O)(=O)N3CCCC3)cc2)c1	x	x	0.6	-4
18	Cc1ccccc1Cn1nc(C)c(NC(=O)C2c3ccccc3Oc3ccccc32)c1C	4	12	0.0	8
19	C[C@@H]1O[C@@H](O[C@H]2[C@H](O)[C@@H](O)[C@H](Oc3c(-c4ccc(O)cc4)oc4cc(O)cc(O)c4c3=O)O[C@@H]2CO)[C@H](O)[C@H](O)[C@H]1O	x	x	-0.7	-3
20	Cc1ccnc(NS(=O)(=O)c2ccc(NS(=O)(=O)c3cccs3)cc2)n1	-7	2	0.6	2
21	CCCCCOc1ccc(C(=O)OC(C)C(=O)NCc2ccco2)cc1 (stereo not given)	-6	-2	-0.7	-3
22	CCN(CC)c1ccc(Nc2nc(-c3cccnc3)cs2)cc1	33	-3	-1.7	8
23	Cc1cc(CCC(=O)O)c(C)cc1CCC(=O)O	3	5	-0.3	-1
24	CCCn1c(N)c(N(CCOC)C(=O)c2ccc(C#N)cc2)c(=O)[nH]c1=O	-16	3	2.2	3
25	COc1ccccc1NC(=O)NC1(C(=O)NCC2CCCO2)CCCCC1 (stereo not given)	-1	3	-0.1	-4
26	O=C1C=C(O)CC(c2ccc(Cl)c(Cl)c2)C1 (stereo not given)	-3	u	-0.7	1
27	CC(C)c1ccc(CNC(=O)C2CC(=O)N(C3CCCCC3)C2)cc1 (stereo not given)	2	1	1.7	-13
28	C=CCNC(=O)NC(=O)COC(=O)/C=C/c1cccc([N+](=O)[O-])c1	2	-16	-0.3	-8
29	O=C1CSc2ccc(C(=O)NCC(c3ccco3)N3CCCCC3)cc2N1 (stereo not given)	2	3	0.4	-9
30	COc1cc(NC(=O)CSc2nnc3ccc(-c4ccncc4)nn23)cc(OC)c1	11	-5	0.2	15

cpd	LANA-H2B inh	UCH37 inh	Beta apoptosis	RanGTP-Impb inh
16	5.3	5.4	-5	u
17	-2.1	4.2	-5	x
18	-0.1	-0.6	-5	2.3
19	-4.4	0.3	0	x
20	-3.8	4.4	7	0.2
21	-4.5	1.7	0	-2.4
22	-0.6	1.3	1	1.3
23	1.2	1.3	-3	-0.2
24	-0.4	2.6	-3	u
25	2.3	1.4	-1	-1.5
26	-5.1	0.9	-6	-3.3
27	1.6	1.7	2	-1.9
28	-2.3	1.0	-9	-3.0
29	0.3	1.7	-2	-1.3
30	-12	3.0	-2	1.1

Reprinted at random: 2 entries already listed.
cpd	canonical_smiles	T cruzi repl	Calb FLC	A1 inh	Beta2AR agonist
17	O=C(O)c1ccc(Cl)c(S(=O)(=O)Nc2ccc(S(=O)(=O)N3CCCC3)cc2)c1	x	x	0.6	-4
22	CCN(CC)c1ccc(Nc2nc(-c3cccnc3)cs2)cc1	33	-3	-1.7	8

cpd	LANA-H2B inh	UCH37 inh	Beta apoptosis	RanGTP-Impb inh
17	-2.1	4.2	-5	x
22	-0.6	1.3	1	1.3

Additional entries follow:
cpd	canonical_smiles	T cruzi repl	Calb FLC	A1 inh	Beta2AR agonist
31	Cc1nnc(SCC(=O)Nc2sc3c(c2C#N)CCCCC3)n1N	12	-9	0.1	-5
32	CC(=O)Nc1ccc(NC(=O)c2c(C)nc3ccccn23)cc1	-12	-13	-0.1	-2
33	COc1ccc(C(=O)Nc2cccc(OC(=O)c3ccc(C)c(C)c3)c2)cc1	-3	0	-2.1	-1
34	Cc1ccc(C(C)(c2ccc(N)cc2)c2ccc(N)cc2)cc1	22	18	0.8	8
35	Cc1cc(Cl)ccc1C(=O)C1CCCN(C(=O)c2ccsc2)C1 (stereo not given)	8	2	-0.3	3
36	CCN(CC)S(=O)(=O)c1ccc(NC(=O)c2ccc(Cl)nc2)cc1	11	-2	0.5	2
37	Cc1cc(C(=O)Nc2cccc(/C=C/C(=O)O)c2)c(C)o1	-15	2	-5.5	-7
38	COc1ccccc1C1CC(c2ccco2)=NN1S(C)(=O)=O (stereo not given)	-7	u	-0.1	-10
39	CC(C)(O)CNC(=O)C(Cc1ccccc1)N1C(=O)c2ccccc2C1=O (stereo not given)	-23	-5	0.2	3
40	COCC(=O)N(Cc1nc2ccccc2c(=O)[nH]1)Cc1cccs1	-6	-1	-0.2	6
41	COc1ccc(S(=O)(=O)Nc2cccc3c2O[C@H](CN(C)S(=O)(=O)c2ccc(F)cc2)[C@H](C)CN([C@H](C)CO)C3=O)cc1	x	x	0.5	0
42	O=C(c1ccc(F)cc1)n1ccc(-c2cnc(-c3ccccc3)s2)n1	-7	35	-7.6	6
43	CNC(=S)NNc1ccccc1[N+](=O)[O-]	4	8	-1.6	4
44	CC1(C)Cc2cccc(OCC(=O)OCC(=O)NCc3ccc(F)cc3)c2O1	-5	-2	0.7	-2
45	CC(C)(C)CNc1cc(N2CCCC2)ccc1[N+](=O)[O-]	27	5	0.9	-5

cpd	LANA-H2B inh	UCH37 inh	Beta apoptosis	RanGTP-Impb inh
31	2.4	2.9	1	-0.5
32	-11	5.9	1	-2.9
33	-1.5	0.7	-2	-1.2
34	5.4	1.3	-9	-0.2
35	6.5	0.1	-1	-2.1
36	-0.4	0.0	5	u
37	0.9	1.6	-6	-1.7
38	-7.0	1.0	-6	3.5
39	-0.1	0.3	-3	-0.9
40	-0.2	0.8	0	5.8
41	-0.1	-0.7	-6	x
42	2.4	-294	-7	2.4
43	-0.8	7.2	-1	-1.6
44	-1.4	1.8	2	-0.1
45	4.4	4.3	5	-0.6

(further entries)
cpd	canonical_smiles	T cruzi repl	Calb FLC	A1 inh	Beta2AR agonist
46	CCOC(=O)N1CCN(S(=O)(=O)c2cccs2)CC1	-6	0	-0.2	11
47	CCCCCN(C(=O)CCC(=O)OCC(=O)c1ccc(CCC)cc1)c1c(N)n(CCCC)c(=O)[nH]c1=O	-1	4	0.9	-4
48	O=C(NCc1ccccn1)C(=O)NCC1OCCN1S(=O)(=O)c1ccc(F)cc1 (stereo not given)	0	-5	1.4	-1
49	CN(C(=O)c1ccc(Br)o1)C1CCS(=O)(=O)C1 (stereo not given)	-16	-6	0.8	-4
50	Nc1cnc(CNc2ccccc2Cl)cn1	-29	-12	0.8	-1

cpd	LANA-H2B inh	UCH37 inh	Beta apoptosis	RanGTP-Impb inh
46	-1.4	-0.9	0	-0.2
47	-9.5	1.9	x	2.8
48	-1.9	-0.4	1	-2.8
49	2.8	2.0	0	u
50	5.3	1.4	-7	-4.6

Assay outcomes: PubChem, several laboratories
